# Screening results from PubChem.
# StopGo RLuc: Primary qHTS Assay for Foot and Mouth Disease Virus Antivirals against NCGC Sytravon and CBC Compound Libraries: Renilla Luciferase Signal. AID 1745857, 2022. HEK cells with a luciferase reporter of 2A StopGo recoding. Potency, µM (titrated, usually from 57.5 µM), inactives show at the top dose signal change, negative = less light. hit rate 0.32% among 120,000; active means well fitted falling curve with a large enough effect; inconclusive means small, poorly fitted or top-dose-only effect; inactive means no such curve, though single readings can be large or run the other way; also: nearly all actives have a fitted effect of over 55% in size; overnight with compound
# StopGo FLuc: Primary qHTS Assay for Foot and Mouth Disease Virus Antivirals against NCGC Sytravon and CBC Compound Libraries: Firefly Luciferase Signal; Potency, µM (highest dose often 57.5 µM), for the others: top-dose signal change, negative = less light; HEK cells with a luciferase reporter of 2A StopGo recoding; hit rate 0.23% among 120,000; active = well fitted falling curve with a large enough effect; inconclusive = small, poorly fitted or top-dose-only effect; inactive = no such curve, though single readings can be large or run the other way; also: nearly all actives have a fitted effect of over 60% in size; overnight with compound
# * = called active by the depositor; ? = inconclusive; & = joins results of further samples; [ ] = dose if it differs, or a comment. % is scaled to controls: 0 for no effect and ±100 for the full control effect; potency is read from the fitted curve at half-maximal effect. Only part of the results is shown, so the mix of outcomes need not match the whole.
1. COc1ccc(-c2nc3n(n2)C(c2ccccc2F)C(C(=O)Nc2cccnc2)=C(C)N3)cc1OC (centres undefined)
2. Cc1c(Cl)cccc1NC(=O)Cn1c(=O)cc(C)c2c(C)nn(-c3cccc(F)c3)c21
3. CCOC(=O)N1CCc2c(sc3c2c(=O)n(Cc2ccccc2)c(=O)n3Cc2ccc(C)cc2)C1
4. COc1ccccc1CNC(=O)CSc1nc(=O)[nH]c2c1CCC2
5. O=C(C1CC1)N1CCN(c2nc3ccc(F)cc3s2)CC1
6. COc1ccc(C(=O)Oc2ccc(C(c3c(C)[nH][nH]c3=O)c3c(C)[nH][nH]c3=O)cc2)cc1
7. O=C(COc1ccc(F)cc1)Nc1ccccc1C(=O)OCc1cc(=O)n2ccsc2n1
8. O=C(O)C1(c2cccc(Br)c2)CCCC1
Screen / compound no.	1	2	3	4	5	6	7	8
StopGo RLuc	-3%	-6%	-2%&-9%	3%	-14%	-7%	-14%	-2%
StopGo FLuc	-11%	-17%	-6%&-11%	-19%	67%[activator]	11%	2%	2%

9. Cc1ncc(-c2ccc(S(=O)(=O)Nc3cc(Cl)ccc3C)cc2)o1
10. COc1ccc(CNc2oc(COc3cccc(C)c3)nc2C#N)cc1
11. Cn1nc(C(=O)Nc2ccc(F)c(Cl)c2)c2c1-c1ccccc1S(=O)(=O)C2
12. Cc1ccc(C)c(CN2C(=O)c3ccccc3S(=O)(=O)c3ccc(C(=O)NCCC4=CCCCC4)cc32)c1
13. CCCCn1nc(C(=O)NCC2COc3ccccc3O2)c2ccccc2c1=O (centres undefined)
14. COc1ccc(-c2cc(C(F)(F)F)nc(NCc3ccccc3)n2)cc1OC
15. Fc1ccc2ncc3c(-c4ccccc4)n[nH]c3c2c1
16. CCOC(=O)C1C(c2ccccc2F)NC(=O)NC1(O)C(F)(F)F (centres undefined)
Screen / compound no.	9	10	11	12	13	14	15	16
StopGo RLuc	136%[activator]	0%	-17%	13%	7%	11%	-15%	-5%
StopGo FLuc	?	20%	-17%	0%	-16%	11%	-2%	26%

17. CCN1CCN(Cc2c(O)ccc3oc(C)c(C(=O)Nc4ccc(C)cc4C)c23)CC1
18. CCN(C1CCCCC1)S(=O)(=O)c1ccc(C(=O)Nc2ccc(Cl)c3ncsc23)cc1
19. COc1ccc(OC)c(C(=O)OCc2nc3ccccc3o2)c1
20. CCC(=O)Nc1ccc(Cl)c(NC(=O)c2ccc3c(c2)OCO3)c1
21. COc1ccc(CNS(=O)(=O)c2cc3c(cc2C)n(C)c(=O)c(=O)n3C)cc1
22. Cc1c(B2OC(C)(C)C(C)(C)O2)cnn1C
23. COc1cccc(CN(C)C(=O)C23CC4CC(C2)CC(c2ccccc2)(C4)C3)c1OC
24. O=C(OCC(=O)N1CCNC1=O)c1csc(NCc2ccccc2)n1
Screen / compound no.	17	18	19	20	21	22	23	24
StopGo RLuc	-8%	7%	40%[activator]	17%	-16%	-2%[1.06 µM]	-6%	-11%
StopGo FLuc	-11%	0%	235%[activator]	29%	38%	-2%	?	-7%

25. S=C(Nc1ccc(Cl)c(Cl)c1)NC1CC1
26. CN(C)S(=O)(=O)c1ccc2c(c1)N(CC(=O)N1CCC(C(N)=O)CC1)CCS2
27. Cn1nc(-c2ccc(NCCO)c([N+](=O)[O-])c2)c2ccccc2c1=O
28. CCc1nnc(NC(=O)c2cc(=O)c3cc(C)cc(C)c3o2)s1
29. O=C(NCc1ccc(F)cc1)C1CCN(S(=O)(=O)/C=C/c2ccccc2)CC1
30. COc1ccccc1CNC(=O)C1(C)Cn2nc(-c3ccccc3)cc2C(=O)N1Cc1ccco1 (centres undefined)
31. Cc1ccc(OCc2nc(C#N)c(NCCCN3CCOCC3)o2)cc1
32. CCCOc1ccc(CC2C(=O)Nc3ccc(Br)cc32)cc1 (centres undefined)
Screen / compound no.	25	26	27	28	29	30	31	32
StopGo RLuc	72%[activator]	-7%	18%	6%	27%	12%	-15%	16%
StopGo FLuc	11%	-3%	29%	11%	32%	11%	-6%	-17%

33. CN(C)CCNC(=O)c1ccc(-n2c(-c3ccccc3)cc3c2CCCC3)cc1
34. O=C(CCC(=O)c1ccc2ccccc2c1)NC1CCCCCC1
35. Cn1c(NCCO)nc2c1c(=O)n(Cc1ccc(F)cc1)c(=O)n2C
36. CCCC(=O)Nc1nc2ccc(CCC(=O)N3CCN(c4ccccc4F)CC3)cc2s1
37. COc1ccc(-c2nc(S(=O)(=O)c3ccc(Cl)cc3)c(N3CCCCCC3)o2)cc1
38. CCC(C(=O)NCc1ccco1)n1nc(C)c2c(C)n(-c3ccc(C)cc3)nc2c1=O (centres undefined)
39. C/C(CCc1ccc(O)cc1)=N\NC(N)=S
40. COc1ccc(OCCOC(=O)Cn2cnc3c2c(=O)n(C)c(=O)n3C)cc1
Screen / compound no.	33	34	35	36	37	38	39	40
StopGo RLuc	?	-7%[1.06 µM]	1%	0%	-6%	?	30%&45%[activator]	-6%
StopGo FLuc	28%	0%	3%	21%	20%	?	0%&70%	7%

41. CCOc1ccc(C(C)NC(=O)OC)cc1 (centres undefined)
42. O=C(Cn1nc(Cl)nc1Cl)c1ccc(F)cc1
43. N#CCCN1CCN(C(C(=O)O)c2c(-c3ccccc3)[nH]c3ccccc23)CC1 (centres undefined)
44. COCCNC(=O)CSc1c(C)cnc2c1c(=O)n(C)c(=O)n2C
45. CC(=O)c1c(C)nc2ccccc2c1-c1ccccc1
46. Cc1cccc2[nH]cc(CCN)c12
47. CSc1nn(CCN(C)C)c2nc3sc4c(c3c(=O)n12)CCCC4
48. CC(C)=NNC(=O)c1cccc(C(=O)NN=C(C)C)c1
Screen / compound no.	41	42	43	44	45	46	47	48
StopGo RLuc	0%	-2%	2%	2%	4%	2%	-13%	2%
StopGo FLuc	16%	-3%	24%	-4%	-7%	4%	-11%	64%[activator]

49. CC(=O)N1c2nc(-c3ccco3)nn2C2(CCCCC2)[C@@H]2CCCC[C@@H]21
50. CCOc1ccc2c(c1)SC(CC(=O)Nc1ccc(OC)cc1)C(=O)N2 (centres undefined)
51. COc1cccc(C2=NN(S(C)(=O)=O)C(c3cn(-c4ccccc4)nc3-c3cccs3)C2)c1 (centres undefined)
52. CNCCC(Oc1ccc(C(F)(F)F)cc1)c1ccccc1 (centres undefined)
53. CN(CC1CC1)C(=O)c1cc(-c2ccccc2Cl)nc2ccccc12
54. CC(C)Cn1c(=O)c2ccccc2n2c(SCC(=O)Nc3ccc(F)cc3F)nnc12
55. Clc1ccc(Cl)c(-c2ccc(CNCC3CCNCC3)o2)c1
56. COc1ccccc1Nc1nc(N)c(C(=O)c2ccc(Cl)cc2)s1
Screen / compound no.	49	50	51	52	53	54	55	56
StopGo RLuc	6%&-4%	9%	44%[activator]	45%[activator]	-10%	-5%	28µM*	1%
StopGo FLuc	10%&-8%	-6%	67%[activator]	-7%[11.5 µM]	-21%	-1%	32µM*	59%[activator]

# Some of the entries so far, as tab-separated lines:
item	mol	StopGo RLuc	StopGo FLuc
42	O=C(Cn1nc(Cl)nc1Cl)c1ccc(F)cc1	-2%	-3%
43	N#CCCN1CCN(C(C(=O)O)c2c(-c3ccccc3)[nH]c3ccccc23)CC1 (centres undefined)	2%	24%
44	COCCNC(=O)CSc1c(C)cnc2c1c(=O)n(C)c(=O)n2C	2%	-4%
45	CC(=O)c1c(C)nc2ccccc2c1-c1ccccc1	4%	-7%
46	Cc1cccc2[nH]cc(CCN)c12	2%	4%
47	CSc1nn(CCN(C)C)c2nc3sc4c(c3c(=O)n12)CCCC4	-13%	-11%
48	CC(C)=NNC(=O)c1cccc(C(=O)NN=C(C)C)c1	2%	64%[activator]
49	CC(=O)N1c2nc(-c3ccco3)nn2C2(CCCCC2)[C@@H]2CCCC[C@@H]21	6%&-4%	10%&-8%
50	CCOc1ccc2c(c1)SC(CC(=O)Nc1ccc(OC)cc1)C(=O)N2 (centres undefined)	9%	-6%
51	COc1cccc(C2=NN(S(C)(=O)=O)C(c3cn(-c4ccccc4)nc3-c3cccs3)C2)c1 (centres undefined)	44%[activator]	67%[activator]
52	CNCCC(Oc1ccc(C(F)(F)F)cc1)c1ccccc1 (centres undefined)	45%[activator]	-7%[11.5 µM]
53	CN(CC1CC1)C(=O)c1cc(-c2ccccc2Cl)nc2ccccc12	-10%	-21%
54	CC(C)Cn1c(=O)c2ccccc2n2c(SCC(=O)Nc3ccc(F)cc3F)nnc12	-5%	-1%
55	Clc1ccc(Cl)c(-c2ccc(CNCC3CCNCC3)o2)c1	28µM*	32µM*
56	COc1ccccc1Nc1nc(N)c(C(=O)c2ccc(Cl)cc2)s1	1%	59%[activator]

# The list continues.
57. O=C(Nc1ccc2oc(-c3ccccc3)cc(=O)c2c1)c1ccco1
58. CCOC(=O)c1ccc(N2CCN(C(C)=O)CC2)c(NC(=O)c2ccc3ccccc3c2)c1
59. CC(=O)Nc1ccc(SCC(=O)c2ccc3c(c2)CCC3)cc1
60. COc1cc(/C=N/OCc2ccccc2)ccc1OCc1ccc(C(=O)O)cc1
61. Cc1[nH]c(I)c(C)c1C=O
62. CCC(C(=O)Nc1ccc(C(=O)OC)cc1)n1nc(-c2ccc(C)cc2)c2c(c1=O)CCCC2 (centres undefined)
63. COc1ccc(CN2CCN(C/C=C/c3ccccc3)CC2)cc1OC
64. Cn1c(=O)c2nc(SCc3ccc(F)cc3)n(C)c2n(C)c1=O
Screen / compound no.	57	58	59	60	61	62	63	64
StopGo RLuc	-2%	132%[activator]	23%	2%	47%[activator]	12%	?	0%
StopGo FLuc	15%	33%[activator]	54%[activator]	0%	0%	6%	-8%	4%

65. COc1ccccc1C1=NS(=O)(=O)N(C)C(C(=O)N2CCN(Cc3ccccc3)CC2)=C1
66. CCCc1cc(=O)[nH]c(SCc2noc(-c3ccc(Cl)cc3)n2)n1
67. O=c1c2c(nc3nc(NCc4ccccc4Cl)[nH]n13)CCC2
68. CC(C)c1ccc(OCC(=O)NCC(c2ccc(Cl)cc2)N2CCOCC2)cc1 (centres undefined)
69. O=C(NCc1n[nH]c(=O)c2ccccc12)c1ccccc1Cl
70. CCCCc1cc(=O)oc2cc(OC(C)C(=O)O)ccc12 (centres undefined)
71. CC1CCN(S(=O)(=O)c2ccc3c(ccn3CCC(=O)NCC3CCCO3)c2)CC1 (centres undefined)
72. CCC(NC(=O)/C(=C\c1ccccc1)NC(=O)c1ccc(C)cc1)C(=O)O (centres undefined)
Screen / compound no.	65	66	67	68	69	70	71	72
StopGo RLuc	85%[activator]	-3%	-6%	-6%	3%	4%	0%	-1%
StopGo FLuc	-11%	-8%	-3%	-3%	19%	8%	-8%	-1%

73. Cc1ccccc1S(=O)(=O)N1CCC(n2c(CC(C)C)nc3cccnc32)CC1
74. CNc1nc(Oc2ccc(=O)n(C)n2)nc(N2CCOCC2)n1
75. CC(C)N1CCC(CNC(=O)Nc2ccccc2F)C1 (centres undefined)
76. CC(NC(=O)c1ccccc1O)C(C)(C)C (centres undefined)
77. CC(NC(=O)c1cccc(CS(C)=O)c1)c1ccccc1 (centres undefined)
78. Cc1ccc(NC(=O)Cn2c(=O)n(CC(=O)NCCc3ccccc3)c(=O)c3ccccc32)cc1C
79. COC(=O)C1=C(C)NC(C)=C(C(=O)OCC(C)=O)C1c1ccccc1[N+](=O)[O-] (centres undefined)
80. CC1C2CC(C/C2=N/O)C1(C)C (centres undefined)
Screen / compound no.	73	74	75	76	77	78	79	80
StopGo RLuc	19%	-7%	-1%	2%	1%	-7%	48%[activator]	2%
StopGo FLuc	-4%	-9%	6%	3%	7%	2%	-8%[11.5 µM]	13%

81. Cc1cc(C(=O)OC(C)C(=O)C23CC4CC(CC(C4)C2)C3)c(C)o1 (centres undefined)
82. O=C(Nc1ccc2c(c1)CCC2)c1cccc(Br)c1
83. CC(=O)c1ccc(NCC(=O)N2N=C(c3ccc(C)o3)CC2c2cccs2)cc1 (centres undefined)
84. CC(C)(CO)NCc1cccc2ccccc12
85. Cc1cc2oc(C(=O)NCC(c3cccs3)N(C)C)cc(=O)c2cc1Cl (centres undefined)
86. CCOc1ccc(C(=O)Nc2ccc(-c3nc4cc(CC)ccc4o3)cc2)cc1
87. COCCOc1cc(NC(=O)c2nn(C)c(=O)c3ccccc23)ccc1OC
88. O=C(/C=C/c1cccc(Cl)c1)c1ccc(O)cc1
89. Fc1ccc(-c2noc(/C=C/c3ccccc3)n2)cc1
Screen / compound no.	81	82	83	84	85	86	87	88	89
StopGo RLuc	-2%	6%	-15%	4%	1%	-1%	42%[activator]	15%	15%
StopGo FLuc	124%[activator]	56%[activator]	11%	85%[activator]	-2%	5%	0%	144%[activator]	18%
